Menin MLL FP FL: inhibitors of human menin-MLL interaction, wild-type MLL peptide; AID 1766; 290,000 tested, under 10 active; Fluorescence polarization, fluorescein-MLL peptide displacement from menin; FP activity change, % at 61.4 µM; inconclusive = falling polarisation curve, or a change in total fluorescence; inactive = total fluorescence flat and polarisation flat or rising; no compound was filed as active; the % refers to the polarisation; negative = inhibition;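 also: % of control where 0% means no effect; inhibitors lower the polarisation; unlabelled MLL peptide was the positive control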
TRPV1 potentiator: human TRPV1 potentiation. TRPV1-expressing cells, Fluo-8 calcium influx, capsaicin EC20 potentiation; host cell line not named in the record; control for the full effect not named in the record. potentiation, % at 8.33 µM. 320,000 tested, 0.02% active. AID 540277; active means potentiation above 80%; inconclusive means 30% to 80%; inactive means below 30%; also: 0% is about no effect
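Cells expressing TRPV1 were dye-loaded with Fluo-8 and read kinetically: 10 s baseline, 3 min after compound (agonist portion), then 2 min after EC20 capsaicin (allosteric enhancer portion). Calcium-bound dye fluorescence at 480/520 nm.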
gsp ag: agonists of gsp mutant (McCune-Albright syndrome); 340,000 tested, 0.13% active; Potency, µM (series often up to 76.9 µM), for the others: at the top dose activation (cAMP increase), hits mostly activators; gsp mutant cells, cAMP HTRF, 30 min; control for the full effect not named in the record; active = well fitted activation curve with a large enough effect; inconclusive = small, poorly fitted or top-dose-only effect, or another doubt; inactive = no such curve, though single readings can be large or run the other way; cell line not stated here;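 also: phosphodiesterase inhibitor Ro 20-1724 added with compounds to block cAMP breakdown; potency is read from the fitted curve at half-maximal effect; nearly all actives have a fitted effect of over 60% in size; about a fifth of the inactives were tested at one dose only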
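Cells stably selected in G418 were plated at 2000/well, grown 16-24 hr, then given compounds in DMSO with the PDE inhibitor […] (300 uM solution added) for 30 min at 37C; cAMP was read by HTRF.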
D2 PAM: potentiates the human D2 dopamine receptor allosterically; P14416; 360,000 tested, 0.23% active; DiscoveRx D2 beta-arrestin cells, luminescence, 90 min; 100% = 57 uM dopamine signal; potentiation, % (concentration not given with the values); active = potentiation of 50% or more; inconclusive = 30% to 50%; inactive = 30% or less;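 also: compound concentration not given in the record; tested on top of an EC20 dose of dopamine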
Target sequence (P14416 whole entry, looked up): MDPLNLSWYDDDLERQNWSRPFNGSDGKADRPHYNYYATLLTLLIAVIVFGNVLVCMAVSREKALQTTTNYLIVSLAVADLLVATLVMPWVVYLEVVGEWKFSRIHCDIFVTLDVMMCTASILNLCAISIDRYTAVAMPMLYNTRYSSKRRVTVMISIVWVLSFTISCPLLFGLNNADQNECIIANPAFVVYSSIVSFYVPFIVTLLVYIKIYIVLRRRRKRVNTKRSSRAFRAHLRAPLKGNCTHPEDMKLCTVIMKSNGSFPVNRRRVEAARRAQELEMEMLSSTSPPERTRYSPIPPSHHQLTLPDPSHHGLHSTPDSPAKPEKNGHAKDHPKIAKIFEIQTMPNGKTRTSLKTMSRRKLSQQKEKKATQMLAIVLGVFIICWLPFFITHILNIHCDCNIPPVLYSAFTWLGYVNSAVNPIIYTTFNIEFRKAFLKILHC
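PathHunter D2 cells, attached overnight at 37 deg C, received compound in DMSO plus dopamine at EC20 (50 nM final) for 90 min at 37 deg C. Beta-arrestin recruitment was read as luminescence after 1 h with detection reagent at ambient temperature.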
gsp antag: antagonists of gsp mutant (McCune-Albright syndrome); gsp-mutant cells, cAMP HTRF, 30 min; control for the full effect not named in the record; Potency, µM (series often up to 76.9 µM), for the others: at the highest dose activity change, negative = inhibition, actives largely listed as inhibitors; 340,000 tested, 0.4% active; AID 624288; active = falling curve of any shape with a large fitted effect; inconclusive = falling curve, mostly with a smaller effect; inactive = flat or rising curve; cell line not stated here;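 also: intracellular cAMP measured with PDE inhibitor Ro 20-1724 present during compound exposure; potency is read from the fitted curve at half-maximal effect; % is scaled to controls: 0 for no effect and ±100 for the full control effect; nearly all actives have a fitted effect of over 65% in size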
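HTRF cAMP read-out (cAMP-d2 plus anti-cAMP antibody-K in lysis buffer, 30 min RT). Before lysis, cells are exposed to compounds with […] for 30 min at 37C in DPBS containing Ca/Mg, BSA and Tween 20.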
ClpP mod: qHTS Assay for Activators of ClpP | ATP-dependent Clp protease proteolytic subunit (Bacillus subtilis (strain 168)), P80244 | purified B. subtilis ClpP, FRET peptide cleavage, 20 min | 340,000 tested, 1.9% active | Potency, µM (highest dose often 57.5 µM), inactives show at the top dose activity change, negative = active; active = well fitted falling curve with a large enough effect; inconclusive = small, poorly fitted or top-dose-only effect; inactive = no such curve, though single readings can be large or run the other way; also: potency is read from the fitted curve at half-maximal effect; the source files actives as falling curves though it sought activators and does not explain the sign; nearly all actives have a fitted effect of over 65% in size; many hits overshoot -100%
Target sequence (P80244 whole entry, looked up): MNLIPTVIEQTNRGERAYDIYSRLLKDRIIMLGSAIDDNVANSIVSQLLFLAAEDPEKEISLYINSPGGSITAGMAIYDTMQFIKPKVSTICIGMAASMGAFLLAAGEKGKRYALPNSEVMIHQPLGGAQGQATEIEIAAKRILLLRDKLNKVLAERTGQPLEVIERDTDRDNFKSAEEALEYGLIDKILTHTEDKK
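ClpP 10 microg/mL final, pH 8 Tris/KCl buffer with BSA, glycerol, Tween-20; compound pinned in; FRET-FV substrate; RT 20 min; Ex320/Em430; ΔFRET vs ADEP 5.8 microM, DMSO, no enzyme.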
Sfp inh: inhibitors of Bacillus subtilis Sfp phosphopantetheinyl transferase; Q9F4F7; Biochemical Sfp PPTase activity, qHTS; Potency, µM, for the others: max response, negative = inhibition, most hits filed as inhibitors; 310,000 tested, 3.5% active; active = well fitted inhibition curve with a large enough effect; inconclusive = small, poorly fitted or top-dose-only effect, or another doubt; inactive = no such curve, though single readings can be large or run the other way;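 also: the enzyme is Sfp with the accession as filed and its product quenches rhodamine fluorescence; potency is read from the fitted curve at half-maximal effect; 0% = enzyme reaction without inhibitor and -100% = no enzyme wells; top concentration of the series not given in the record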
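Buffer: 50 mM Hepes-Na pH 7.6, 10 mM MgCl2, 0.01% Nonidet P-40, 0.01% BSA. Enzyme 15 nM, pre-exposed to compound 15 min; substrates then added and fluorescence change tracked over 30 min.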
* marks the source's active call; other numbers are inactive results; ? = inconclusive; nt = no result given; & = joins results of further samples; [ ] = another dose, or the depositor's remark.

SMILES,Menin MLL FP FL,TRPV1 potentiator,gsp ag,D2 PAM,gsp antag,ClpP mod,Sfp inh
CCOC(=O)c1sc2ncnc(N3CCN(C(=O)OCC)CC3)c2c1C,2.0,-17,?,0,-15%,-11%,6%
COc1ccc2c(c1)c1nc3ccccc3nc1n2Cc1ccc(OC(C)C)c(OC)c1,?,-5,6%,1,3%,0.4%,14µM*
O=C(NCCc1cccc(F)c1)C1CCC(=O)N(C2CCCCCC2)C1 (stereo not given),-0.2,10,-4%,-4,10%,-0.5%,3%
CCOC(=O)Cc1csc(NC(=O)c2cccc([N+](=O)[O-])c2)n1,1.5,6,3%,-7,-24%,-0.2%,4%
O=C(COc1ccccc1CNCc1ccccc1)Nc1ccccc1,9.8,8,27%,-19,3%,-0.6%,17%
CC(=O)NCCc1nc2cc(NC(=O)c3cccc([N+](=O)[O-])c3)ccc2n1C,-2.3,-7,6%,-15,2%,0.6%,10%
CCn1c(SCC(=O)N/N=C/c2cc(OC)c(O)c(OC)c2)nc2ccccc21,1.3,-6,-63%[inhibitor],16,10%,-2.6%,-27%
COC(=O)[C@H]1C[C@@]2(O)CN(S(=O)(=O)c3ccc(C)cc3)C[C@@]2(OC(=O)NCc2ccco2)C[C@H]1C(=O)OC,nt,nt,-5%,4,nt,1.6%,nt
CC(=O)OCC(=O)N1N=C(c2ccc3ccccc3c2)CC1c1ccccc1 (stereo not given),-0.6,-4,-1%,-2,11%,nt,25µM*
Cc1ccc(CNC(=O)COC(=O)Cn2nc(C)c([N+](=O)[O-])c2C)cc1,2.3,-27,2%,-5,-1%,nt,19%
CC1CC(C)CN(CCCNC(=O)c2ccc(N3CCCC3=O)cc2)C1 (stereo not given),nt,8,?,-18,4%,-0.9%,5%
COc1ccc(C(=O)N2CCCC2)cc1S(=O)(=O)N1CCOCC1,-1.7,23,-3%,-5,7%,-3.3%,-23%
Cc1cccc(-n2ncc3c2CCCC3NC(=O)CN2CCOC2=O)c1C (stereo not given),nt,6,-27%,-3,-2%,-0.9%,16%
C[C@@H]1CN(C2CCN(Cc3nc(C(c4ccccc4)c4ccccc4)no3)CC2)C[C@H](C)O1,0.4,-4,0%,-6,-1%,nt,13%
NS(=O)(=O)c1ccc(CCn2c(=S)[nH]c3ccccc3c2=O)cc1,-2.5,0,-23%[15.4 µM],0,0%,nt,-2%
Cc1[nH]n(-c2ccccc2)c(=O)c1/C=N/NC(=O)c1cccc([N+](=O)[O-])c1,3.0,3,-23%,-8,-2%,0.8%,10%
CC(C)CNC(=O)NC(=O)COC(=O)c1cc([N+](=O)[O-])ccc1NCc1ccccc1Cl,-0.3,4,nt,nt,nt,nt,16%
CCOc1ccc(-c2c(C(=O)N/N=C/c3ccc(C)cc3)nnn2-c2nonc2N)cc1,2.8,3,7%,-1,?,-28%,0%
CCNC(=S)Nc1c(C)n(C)n(-c2ccccc2)c1=O,4.6,14,-26%,-15,11%,-0.5%,-1%
Cc1ccc(C(C)C)c(OCCNC(=O)c2ccccc2O)c1,-1.0,7,2%[15.4 µM],-4,?,-0.3%,18%
O=C(NNC(=O)c1cccs1)c1ccc2ccccc2c1,-3.9,-18,-6%[15.4 µM],7,-17%,nt,13%
COc1ccc(S(=O)(=O)N2CCC(C(N)=O)CC2)cc1C(=O)N1CCCCCC1,-2.7,-10,0%[15.4 µM],-3,-10%,nt,2%
O=C(Nc1ccccc1N1CCCCC1)c1cccc(F)c1,-0.3,5,-27%,-11,3%,-4.9%,-5%
CCc1ccc(-c2cc(C)no2)cc1S(=O)(=O)N1CCN(c2ccccc2)CC1,nt,-36,7%,-8,-5%,-6.2%,20%
O=C(COC(=O)CC(c1ccccc1)c1ccccc1)Nc1cccc(F)c1,6.4,-13,7%,7,2%,-3.2%,14%
Cc1cccc(-n2ccc(=O)c(C(=O)Nc3ccc(S(=O)(=O)Nc4onc(C)c4C)cc3)n2)c1,nt,?,?,-8,9%,nt,16%
COc1cc([N+](=O)[O-])ccc1N,-4.0,-15,-3%[15.4 µM],-17,6%,0.4%,5%
CC1CN(S(=O)(=O)c2cc(C(=O)N(C)Cc3cccs3)ccc2Cl)CC(C)O1 (stereo not given),nt,nt,-10%,-17,-12%,3.7%,nt
CCOc1cc(N2CCOCC2)c(OCC)cc1NC(=O)c1nc2nc(C)cc(C)n2n1,-7.9,-5,-1%,2,-1%[15.4 µM],-1.3%,18%
Cn1cnc(S(=O)(=O)Nc2ccc(OC(F)(F)F)cc2)c1,-5.4,3,6%,-4,13%,-1.5%,18%
Cc1ccccc1N(C)S(=O)(=O)c1ccc2[nH]cc(C(=O)NCC3CCCO3)c(=O)c2c1 (stereo not given),13,nt,9%,2,-22%,32µM*,2%
CC1=NN(c2ccc(C)cc2)C(=O)/C1=C/c1ccc(-c2cc([N+](=O)[O-])ccc2O)o1,0.8,-8,-4%,14,?,-0.5%,-18%
COc1ccccc1NC(=O)C1CCCN1S(=O)(=O)c1cccc2nsnc12 (stereo not given),nt,-9,-2%,-9,-2%,1.4%,9%
OCc1cn(-c2ccccc2)nc1-c1cccnc1,2.3,6,-7%,-4,-6%,-1.7%,16%
O=C1CCc2cc(S(=O)(=O)Nc3ccccc3)cc3c2N1CCC3,nt,5,6%[15.4 µM],-2,5%,nt,nt
O=C(O)c1ccc(NCCC2=CCCCC2)c([N+](=O)[O-])c1,-8.7,2,-4%,-11,-18%,-0.1%,5%
CCOC(=O)c1nnn(CC(=O)Nc2cc(F)ccc2F)c1C(=O)OCC,2.1,-9,0%,25,4%,-1.0%,-1%
Cc1ccc(C(=O)COC(=O)C2CCC2)cc1,-6.0,-17,7%,-5,5%,nt,-2%
CCOC1=NN(c2ncc(C(F)(F)F)cc2Cl)C(=O)C1,4.4,-4,-1%[15.4 µM],-5,-1%,nt,17%
Cc1ccccc1NC(=S)NC(C)C(c1cccs1)N1CCOCC1 (stereo not given),1.2,-23,-28%,-5,2%,-0.4%,-9%
O=C(NCCCn1ccnc1)c1noc2c1CCc1ccccc1-2,-0.9,?,17%,14,7%,-0.8%,5%
O=C(NCCc1ccccc1)c1cnc(Cl)c(Cl)c1,7.3,-24,9%[15.4 µM],-3,-5%,-0.4%,2%
COc1cc(C(=O)OCC(=O)N(C)Cc2ccccc2)cc(OC)c1OC,0.2,-8,?,3,0%,-6.5%,20%
COCCn1c(Sc2ccc(C)cc2)nc2c1c(=O)[nH]c(=O)n2C,2.3,24,-7%,-6,15%,1.3%,12%
COc1ccc(S(=O)(=O)N2CCOCC2)cc1C(=O)NCc1ccccc1CN1CCCC1,nt,13,4%,-9,14%,-1.5%,nt
O=C1OCCN1C(=O)[C@H]1[C@H](c2ccc(Cl)cc2)C(c2cccc(Cl)c2)=NN1c1ccccc1,1.8&2.0,-8,-4%,-6,-11%,3.9%,4%&-1%
Cc1oc(-c2ccc3ccccc3c2)nc1CN(C)C(C)c1ccncn1 (stereo not given),?,4,4%[15.4 µM],-3,?,nt,22µM*
CSc1nc2c(c(-c3ccc(O)cc3)c1C#N)CCC2,-0.8,-7,?,-17,-8%,-6.4%,0%
CC(C)n1c(O)c(N=Nc2ccc(Cl)c(C(=O)O)c2)c2ccccc21,?,2,-4%,-11,-6%,0.7%,5%
COCCN(C(=O)COC(=O)c1cc2c(s1)CCC2)c1c(N)n(Cc2ccccc2)c(=O)[nH]c1=O,nt,20,-1%,-25,0%,-1.9%,nt
CSc1ncc(S(=O)(=O)c2ccccc2)c(=O)[nH]1,-0.7,11,-23%[15.4 µM],-2,-7%,nt,15%
OCC1(Cc2ccccc2)CCN(Cc2ccc(C(F)(F)F)cc2)CC1,0.0,12,-17%,-5,2%,3.1%,8%
Cc1ccc(-c2nc(NCCCN(C)C)c3ccccc3n2)cc1,nt,nt,?,-18,nt,-14%,nt
O=C(Cc1cc(=O)[nH]c(=O)[nH]1)NCC1CCCO1 (stereo not given),0.4,1,-15%,-8,10%,-3.3%,9%
Cc1cc(C)nc(SCC(=O)OCN2C(=O)c3ccccc3C2=O)n1,-1.5,3,-21%,2,-2%,1.1%,13%
O=C(COc1ccc([N+](=O)[O-])cc1)Nc1cccc(C(=O)Nc2ccccc2C(=O)O)c1,nt,-20,-44%[inhibitor],-1,-22%,-1.1%,19%
CCOC(=O)c1c(NC(=O)COC(=O)c2c(C)noc2C)sc2c1CCC2,0.2,?,-27%,-7,3%,0.7%,-17%
CC/C=C\[C@H](O)[C@H](O)C1=C(C)C(=O)[C@]2(O1)C(=O)N[C@@](OC)(C(=O)c1ccccc1)C2O (stereo not given in full),2.8,3,nt,-27,-5%,-0.9%,-5%
COc1ccc(NC(=O)CCCCCN2C(=O)c3cccc([N+](=O)[O-])c3C2=O)c(OC)c1,-5.8,15,2%,0,-27%,-3.4%,-5%

Screens: PubChem BioAssay, National Center for Advancing Translational Sciences (NCATS)
